Lassa entry inh: inhibitors of Lassa virus binding or cell entry; Potency, µM (highest dose often 37.9 µM), without a hit: at the highest dose activity change, negative = inhibition, usual class: inhibitors; AID 540256; Lassa virus pseudotype entry inhibition, cell reporter; control for the full effect not named in the record; 300,000 tested, 1.2% active; active means well fitted inhibition curve with a large enough effect; inconclusive means small, poorly fitted or top-dose-only effect, or effect the other way; inactive means flat fitted curve, though single readings scatter; tested in HEK293 cells; note: % is set by controls: 0 for no effect and ±100 for the full control effect; nearly all actives have a fitted effect of over 50% in size; luciferase read-out
Cruzain noTriton: inhibitors of Trypanosoma cruzi cruzain without detergent; 200,000 tested, 2.3% active; purified cruzain, Z-FR-AMC fluorescence, no detergent; Potency, µM, for the others: max response, negative = inhibition, hits mostly inhibitors; P25779; AID 1476;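 note: plate controls were enzyme without inhibitor for no effect and buffer without enzyme for full effect; nearly all actives have a fitted effect of over 40% in size; top concentration of the series not given in the record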
Target sequence (P25779 123-467 limits assumed): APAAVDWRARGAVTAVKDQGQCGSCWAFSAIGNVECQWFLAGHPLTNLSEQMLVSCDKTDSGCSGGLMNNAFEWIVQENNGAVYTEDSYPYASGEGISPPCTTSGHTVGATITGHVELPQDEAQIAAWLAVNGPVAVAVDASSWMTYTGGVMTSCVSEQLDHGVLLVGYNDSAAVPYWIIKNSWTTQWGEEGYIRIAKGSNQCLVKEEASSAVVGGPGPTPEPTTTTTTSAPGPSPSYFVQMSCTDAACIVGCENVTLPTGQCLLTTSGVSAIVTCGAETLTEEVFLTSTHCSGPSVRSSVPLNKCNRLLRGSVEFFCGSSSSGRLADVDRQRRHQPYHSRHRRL
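Purified cruzain at 1.5 nM, pre-incubated 15 min with compound at room temperature in 100 mM sodium acetate pH 5.5, 5 mM DTT, 0.00005% Triton X-100. Reaction started with 2 uM Z-FR-AMC; AMC fluorescence increase over 60 s gives rate.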
Marburg entry inh: Marburg virus entry inhibition; Marburg virus pseudotyped entry inhibition, cell reporter; control for the full effect not named in the record; about a third of the inactives were read at about 46 µM; Potency, µM (series often up to 37.8 µM), for inactives: at the highest dose activity change, negative = inhibition, most hits filed as inhibitors; 300,000 tested, 1.8% active; AID 540276; active = well fitted inhibition curve with a large enough effect; inconclusive = small, poorly fitted or top-dose-only effect, or effect the other way; inactive = flat fitted curve, though single readings scatter; tested in HEK293 cells; about a fifth of its hits are not listed in these tables; note: % is set by controls: 0 for no effect and ±100 for the full control effect; luciferase read-out
RE007 growth inh: less growth of the S. pombe RE007 Vpr strain. 360,000 tested, 0.21% active. S. pombe RE007 Vpr strain, BacTiter-Glo ATP luminescence, 24 h; control for the full effect not named in the record. Potency, µM (doses to about 92.2 µM), for inactives: at the highest dose activity change, negative = less growth; active = well fitted falling curve with a large enough effect; inconclusive = small, poorly fitted or top-dose-only effect; inactive = no such curve, though single readings can be large or run the other way;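 note: % is set by controls: 0 for no effect and ±100 for the full control effect; nearly all actives have a fitted effect of over 50% in size; the assay follows cell death caused by Vpr and the record does not say whether a fall means rescue or toxicity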
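Fission yeast RE007 carrying one integrated HIV-1 vpr copy, seeded at OD 0.01 in PMG+AL medium with 23 nL pinned compound. Grown 24 h at 30 degrees; viability read by BacTiter-Glo luminescence after 5 min.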
Cruzain Triton: blocks cruzain activity in presence of Triton detergent. Potency, µM, for the others: max response, negative = inhibition, most hits filed as inhibitors. P25779. 200,000 tested, 0.43% active. purified cruzain, Z-FR-AMC fluorescence, 0.01% Triton. AID 1478;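 note: plate controls were neutral wells for no effect and buffer without enzyme for full effect; nearly all actives have a fitted effect of over 40% in size; top concentration of the series not given in the record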
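15 min RT preincubation of 1.5 nM cruzain with compound, then 2 uM Z-FR-AMC added; kinetic AMC fluorescence, 60 s delta. Triton X-100 0.01%, pH 5.5.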
NS1 inh: inhibitors of influenza NS1 protein function; Potency, µM (top dose mostly 46.1 µM), inactives show at the highest dose activity, positive = more growth; 270,000 tested, 0.4% active; S. cerevisiae slowed by influenza A NS1, growth recovery by OD600; active means well fitted rising curve with a large enough effect; inconclusive means small, poorly fitted or top-dose-only effect; inactive means no such curve, though single readings can be large or run the other way; note: nearly all actives have a fitted effect of over 50% in size
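Read-out: OD600 growth recovery of NS1-expressing budding yeast. Cells grown overnight at 30C in -URA glucose medium, washed, resuspended and diluted 1:100 in 2% galactose assay medium, pH 6.0. Same strain lacking NS1 served as positive control.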
SARS PLpro yeast: SARS-CoV PLP inhibition in yeast; 330,000 tested, 0.19% active; Potency, µM (top dose mostly 32.9 µM), without a hit: at the highest dose activity, positive = growth rescue; S. cerevisiae expressing SARS-CoV PLpro, growth rescue; control for the full effect not named in the record; active means well fitted rising curve with a large enough effect; inconclusive means small, poorly fitted or top-dose-only effect; inactive means no such curve, though single readings can be large or run the other way; note: 0% is about no effect; nearly all actives have a fitted effect of over 55% in size; growth read by luminescence after 48 h
2A StopGo: FMDV 2A StopGo reporter, luciferase signal; human cells with a luciferase reporter of 2A StopGo recoding; control for the full effect not named in the record; Potency, µM (highest dose often 57.9 µM), for inactives: at the top dose signal change, negative = less light; 410,000 tested, 1.2% active; active = well fitted falling curve with a large enough effect; inconclusive = small, poorly fitted or top-dose-only effect; inactive = no such curve, though single readings can be large or run the other way; tested in HEK293T cells; note: % is set by controls: 0 for no effect and ±100 for the full control effect; nearly all actives have a fitted effect of over 45% in size; luciferase light after 4 h
* marks the source's active call; other numbers are inactive results; ? = inconclusive; · = no result given; & = joins results of further samples; [ ] = remark or other dose. Unless noted, calls come from the whole dose curve; as a rule, active = well fitted curve in the direction sought with a large enough effect; inconclusive = small, poorly fitted or top-dose-only effect, or another doubt; inactive = no such curve, though single readings can be large; an effect the other way counts as inactive or inconclusive. Potency is the fitted concentration of half-maximal effect.

SMILES	Lassa entry inh	Cruzain noTriton	Marburg entry inh	RE007 growth inh	Cruzain Triton	NS1 inh	SARS PLpro yeast	2A StopGo
Cc1ccnc(SCc2cc(=O)c(OC(=O)c3ccc(S(=O)(=O)N4CCCC4)cc3)co2)n1	25%	23%	-3%	-6%	-14%	-14%	-15%	-19%
CC(Cc1ccccc1)C(=O)NCc1nc2ccccc2s1 (stereo not given)	-2%	-6%	1%	3%	-0.2%	-21%	-17%	56%[activator]
COc1ccc(S(=O)(=O)Nc2cc(Sc3ncn[nH]3)c(O)c3ccccc23)cc1	·	-20%	·	32µM*	-11%	-189%	-46%	·
CC1CN(S(=O)(=O)c2cccc(C(=O)N(Cc3nnc(-c4ccccc4Cl)o3)C3CC3)c2)CC(C)O1 (stereo not given)	3%	·	?	12%	·	·	-2%	-9%
COc1ccc(-c2csc(-n3ncc(-c4ccccn4)c3N)n2)cc1	0%	·	8%	15%	·	·	0%	-5%
CCc1ccc(S(=O)(=O)NCc2cccn2Cc2cccc(C)c2)cc1	6%[46.1 µM]	-8%	·	·	-9.7%	·	·	13%
COc1ccc(C2c3c(oc4ccc(C)cc4c3=O)C(=O)N2c2cc(C)ccn2)cc1OC (stereo not given)	·	?	·	·	-2.7%	3%	2%	·
CCN(CC)C(=O)c1sc(NC(=O)c2ccc3c(c2)OCO3)c(C(N)=O)c1C	?	·	3%	4%	·	-8%	·	62%[activator]
CCN1CCN(CCNC(=O)CS(=O)(=O)Cc2nc(-c3ccc(C)cc3)oc2C)CC1	·	-2%	·	0%	0.2%	?	14%	0%
O=c1c([N+](=O)[O-])c(N2CCCCC2)c2ccccc2n1-c1ccccc1	21%	?	?	-10%	-24%	6%	0%	-22%
COc1ccc(C2CC(c3c(O)cc(C)oc3=O)=NCCS2)c(OC)c1 (stereo not given)	-15%	-2%	?	-21%	-4.3%	6%	0%	18%&42%
CN1C(=O)N(CC(=O)Nc2ccc(C(F)(F)F)cc2)C(=O)C12CCCCC2	-15%	·	-3%	-28%	·	·	0%	-28%
Fc1ccc(NC(=S)N2CCN(c3ncccn3)CC2)cc1	-15%	·	29%	-14%	·	0%	0%	29%
Cc1ccccc1NC(=O)C(C)O/N=C/c1cccc([N+](=O)[O-])c1 (stereo not given)	-19%	5%	-23%[46.1 µM]	1%	3.3%	-6%	-10%	-16%
CCOC(=O)C1C(=O)NC(N2CCCCC2)=NC1C(C)C (stereo not given)	-10%	7%	0%	-21%	13%	?	1%	-20%
Cc1ccccc1OCC(O)CNC1CCCC1 (stereo not given)	?	·	-12%	-22%	·	16%	1%	-12%
Cc1cccc(C)c1NC(=O)COC(=O)C1CC(=O)N(Cc2ccccc2)C1 (stereo not given)	14%	·	16%	2%	·	7%	-1%	8%
COc1cc(/C=C(\C#N)c2nc3ccccc3[nH]2)ccc1O	·	·	·	-18%	·	-56%	-23%	26%
CN(C(=O)COC(=O)C1CCN(S(=O)(=O)c2ccc(Cl)cc2)CC1)C1CCS(=O)(=O)C1 (stereo not given)	-2%[46.1 µM]	·	1%[46.1 µM]	-10%	·	·	3%	-7%
O=C(C1CCN(S(=O)(=O)c2cccs2)CC1)N1CCCCC1	·	·	·	9%	·	-50%	0%	-11%
CC1=C(C(=O)OCC2CCCCC2)C(c2cccc(F)c2F)CC(=O)N1 (stereo not given)	13%[46.1 µM]	13%	0%[46.1 µM]	·	-2.3%	·	·	-28%
O=C(CSc1nc2ccccc2[nH]1)N1c2ccccc2Sc2ccccc21	-5%	-3%	?	0%	-6.0%	-15%	-46%	-8%
Cc1cccc(OCC(=O)Nc2ccncc2)c1	-9%[46.1 µM]	·	?	-8%	·	·	·	-12%
O=C(/C=C/c1cccs1)N1CCOCC1	12%	6.3µM*	15%	0%	-5.9%	9%	-9%	7%
COc1ccc(NC(=O)c2c(NCc3sccc3C)sc3c2CCCCC3)c(OC)c1	-27%[46.1 µM]	7%	·	·	-13%	·	·	44%[activator]
Cc1c(C(=O)N2CCCC2)oc2c1-c1nn(CC(=O)NCc3ccccc3F)cc1CC2	-12%[46.1 µM]	-3%	·	·	-3.3%	·	·	4%
COc1cc([N+](=O)[O-])ccc1NC(=O)CCS(=O)(=O)c1ccc2c(c1)n(C)c(=O)c(=O)n2C	·	·	·	21%	·	-25%	-5%	0%
O=C(Cc1cccc(Cl)c1)Nc1ccc(Br)cc1	·	·	27%[46.1 µM]	-1%	·	-9%	-1%	36%[activator]
CCOC(=O)CN1CC23C=CC(O2)C(C(=O)NCc2cccs2)C3C1=O (stereo not given)	-12%	-5%	7%[46.1 µM]	14%	5.5%	-7%	12%	12%
Cc1ccc(C(=O)N(CCN2CCCCC2)CC2CCCN(C3CCCC3)C2)s1 (stereo not given)	?	·	8.9µM*	-8%	·	-6%	?	22%

A draw from above in order of number of heavy atoms, rising:
SMILES	Lassa entry inh	Cruzain noTriton	Marburg entry inh	RE007 growth inh	Cruzain Triton	NS1 inh	SARS PLpro yeast	2A StopGo
O=C(/C=C/c1cccs1)N1CCOCC1	12%	6.3µM*	15%	0%	-5.9%	9%	-9%	7%
COc1cc(/C=C(\C#N)c2nc3ccccc3[nH]2)ccc1O	·	·	·	-18%	·	-56%	-23%	26%
O=C(CSc1nc2ccccc2[nH]1)N1c2ccccc2Sc2ccccc21	-5%	-3%	?	0%	-6.0%	-15%	-46%	-8%
Cc1cccc(C)c1NC(=O)COC(=O)C1CC(=O)N(Cc2ccccc2)C1 (stereo not given)	14%	·	16%	2%	·	7%	-1%	8%
COc1ccc(NC(=O)c2c(NCc3sccc3C)sc3c2CCCCC3)c(OC)c1	-27%[46.1 µM]	7%	·	·	-13%	·	·	44%[activator]

Further compounds.
SMILES	Lassa entry inh	Cruzain noTriton	Marburg entry inh	RE007 growth inh	Cruzain Triton	NS1 inh	SARS PLpro yeast	2A StopGo
CC1(C)CC(OC(=O)c2ccco2)CC(C)(C)N1O	1%	-3%	13%	-4%	0.2%	1%	0%	-12%
CC(=O)CCC1C2C(O)C(C(C)C)C(OC(=O)/C=C/c3ccccc3)CC12C (stereo not given)	·	·	·	-12%	·	2%	1%	?
CCOC(=O)Cn1c(C(F)(F)F)nc2nc(Cl)c(Cl)nc21	-14%[46.1 µM]	15%	-20%	4%	5.5%	-4%	·	?
Cc1cccc(NC(=O)c2ccccc2NC(=O)Cc2ccccc2)c1C	?	-10%	6%	-3%	0.9%	17%	-2%	·
CCOC(=O)N/N=C/c1c(F)c(F)c(F)c(F)c1F	-15%	13%	16%	-6%	0.8%	3%	1%	-15%
C[C@H](NC(=O)c1nc[nH]c1C(=O)NCC(=O)OCc1ccccc1)C(=O)OCc1ccccc1	·	·	·	8%	·	5%	1%	-24%
COCCNC(=O)c1ccc(N2CC3CC(C2)c2cccc(=O)n2C3)c(NC(=O)c2ccc(Br)o2)c1 (stereo not given)	?	·	8%[46.1 µM]	0%	·	-3%	14%	-10%
Cc1ccc(C(=O)N2CCN(C(=O)c3ccccc3)C2c2ccc(N(C)C)cc2)cc1 (stereo not given)	?	-4%	?	·	-3.5%	2%	?	-3%
O=C(c1cccs1)N1CCN(c2cc(Cl)ccc2Cl)CC1	·	·	·	-16%	·	-54%	-12%	-23%
CCN(CC)CCNc1cc(C)nc2c1C(=O)C(=O)C=C2N1CCCCC1	·	·	·	0%	·	0%	0%	?
O=C(c1ccccc1)N1CCN(CC#CC2(O)CCCCC2)CC1	-13%	10%	14%	11%	1.7%	-1%	2%	·
S=c1[nH]c(-c2ccccc2)cn1/N=C/c1cccc2ccccc12	-18%	·	?	0%	·	·	4%	13%
CCC(C(=O)Nc1ccsc1C(=O)OC)c1ccccc1 (stereo not given)	15%	·	10%[46.1 µM]	-9%	·	-10%	-3%	?
COc1ccccc1N1CCN(CC(=O)c2c(C)[nH]c3ccccc23)CC1	-1%	13%	2%	-3%	-2.8%	-1%	-1%	·
CC1(C)CC(=O)C2=C(C1)Nc1ccccc1N=C2	·	-2%	·	·	-5.8%	-13%	-23%	·
C=CCSc1nc2sc3c(c2c(=O)[nH]1)CC(C)(CC)OC3 (stereo not given)	-2%[46.1 µM]	·	2%[46.1 µM]	3%	·	-4%	3%	7%
Cc1cc(OC(C)C(=O)N2CCN(c3ccc(F)cc3)CC2)c2c(C)cc(=O)oc2c1 (stereo not given)	·	·	·	25%	·	8%	-2%	?
Cc1cc(C)n(C(C)CC(=O)Nc2cccc(C(F)(F)F)c2)n1 (stereo not given)	-3%[46.1 µM]	16%	·	·	-4.5%	·	·	-11%
CC1CCCCN1C(=O)Cn1c(=O)oc2cc(S(=O)(=O)N3CCCCC3)ccc21 (stereo not given)	4%[46.1 µM]	·	-5%[46.1 µM]	20%	·	0%	1%	-9%
CC1CCN(S(=O)(=O)c2ccc3c(c2)N(C)C(=O)CC(=O)N3C)CC1	-13%[46.1 µM]	9%	1%[46.1 µM]	6%	-1.5%	11%	6%	-10%&-8%
CCOc1ccc(NC(=O)Cn2cc(C(=O)c3ccccc3)c(=O)c3cc4c(cc32)OCCO4)cc1	-10%[46.1 µM]	12%	?	·	0.0%	·	·	?
COc1cc(CN2CCN(Cc3c[nH]c4ccccc34)CC2CCO)cc(OC)c1 (stereo not given)	·	·	·	11%	·	25%	13%	-8%
O=S(=O)(NCCN1CCOCC1)c1ccc(Cl)c(Cl)c1	·	·	·	-2%	·	5%	-1%	9%
COc1ccc2c(c1)c1c(c(=O)n(Cc3ccccc3)c(=O)n1CC(=O)NCc1ccc(C)cc1)n2C	29%[46.1 µM]	16%	·	·	-2.0%	·	·	-13%
CC1(C)C(=O)OC(c2cccs2)C(C)(C)C1=O (stereo not given)	-9%	-6%	5%	-7%	4.8%	?	-6%	-12%

Source: PubChem BioAssay (National Center for Advancing Translational Sciences (NCATS))
